Choline anaer gr: choline-fed anaerobic bacterial growth inhibition. 55,000 tested, 0.2% active. calls only. Gram-negative bacterium anaerobic choline minimal medium, absorbance growth; hits give low values; many inactives read as strong as hits in the columns shown;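 active = growth z-score on choline under -2 at 7 or 20 h with little or no fall on glycerol, limits in tiers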;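 note: stock transfer was 300 nL into about 50 µL; the organism is E. coli; final concentration not given here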
Choline anaer gr early: second read-out of Choline anaer gr, no call of its own (marks repeat the call); z-score; measured here: choline growth z-score, timepoint 1;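 score of optical density at 7 h as mean of two plates; lower means less growth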
Starred values were filed as active, the others as inactive; i = inactive.

SMILES	Choline anaer gr	Choline anaer gr early
COc1ccc2cc3c(nc2c1)N(C(=O)c1ccccc1Br)CC3	i	1.5
Cc1cc2c(cc1S(=O)(=O)N(C)CC(=O)NC1CCCC1)OCC(=O)N2	i	-0.13
CCCC(=O)Nc1nc(-c2ccc(F)cc2)ns1	i	0.07
O=C1N(c2ccc(-c3ccccc3)cc2)C(c2ccc(F)cc2)N2CCCN12 (stereo unspecified)	i	0.69
CN(C(=O)Cc1csc(NC(=O)Nc2cccc(Cl)c2)n1)c1ccccc1	i	-0.21
CCC(Sc1nnc(-c2ccccc2NC(C)=O)c(=O)[nH]1)C(=O)Nc1c(C)cc(C)cc1C (stereo unspecified)	i	-0.51
CC1CCN(Cc2cc(=O)[nH]c(C(C)C)n2)CC1	i	0.45
Cc1ccc2nc3c(cc2c1)CCN3S(=O)(=O)c1ccccc1	i	1.7
O=C(Nc1ccc(Cl)cc1)N1CC=C(c2c[nH]c3ccccc23)CC1	i	-2.8
COc1ccc(S(=O)(=O)Nc2ccc(N3CCCS3(=O)=O)cc2)cc1	i	1.1
C=CCN(c1nc2nc(C)cc(C)n2n1)S(=O)(=O)c1ccccc1	i	1.1
Cc1ccc(CSc2nccc3c2ccn3CC(=O)N2CCN(c3ccccn3)CC2)cc1	i	0.4
COc1ccc(Oc2cc3c(cc2S(=O)(=O)N(C)C)C(=O)Nc2ccccc2O3)cc1	i	-0.06
Cc1ccccc1C(=O)Nc1ccc(C(=O)N2CCCC2C(=O)NCCC(C)C)cc1 (stereo unspecified)	i	-1.6
O=C1CC(c2nc3ccccc3n2CC(O)COc2ccccc2Cl)CN1c1ccc(Cl)cc1 (stereo unspecified)	i	-0.69
CC(C)C(=O)N1CCN(Cc2noc(-c3ccccc3)n2)CC1	i	-0.98
O=S(=O)(Nc1ccc(-c2ccc(N3CCCCC3)nn2)cc1)c1cc(F)ccc1F	i	-1.2
Cc1cccc(-c2nc(CSCC(=O)N3CCC(Cc4ccccc4)CC3)c(C)o2)c1	i	-0.34
COc1ccc(Cl)cc1NC(=O)c1ncn(-c2ccccc2)n1	i	-0.79
CCCN(CCC)C(=O)c1cc2c(=O)n3ccccc3nc2n1C	i	-0.65

A draw from above in order of length of the SMILES, low to high:
SMILES	Choline anaer gr	Choline anaer gr early
CCCC(=O)Nc1nc(-c2ccc(F)cc2)ns1	i	0.07
CC1CCN(Cc2cc(=O)[nH]c(C(C)C)n2)CC1	i	0.45
CCCN(CCC)C(=O)c1cc2c(=O)n3ccccc3nc2n1C	i	-0.65
CC(C)C(=O)N1CCN(Cc2noc(-c3ccccc3)n2)CC1	i	-0.98
COc1ccc2cc3c(nc2c1)N(C(=O)c1ccccc1Br)CC3	i	1.5
C=CCN(c1nc2nc(C)cc(C)n2n1)S(=O)(=O)c1ccccc1	i	1.1
COc1ccc(S(=O)(=O)Nc2ccc(N3CCCS3(=O)=O)cc2)cc1	i	1.1
CN(C(=O)Cc1csc(NC(=O)Nc2cccc(Cl)c2)n1)c1ccccc1	i	-0.21
Cc1cc2c(cc1S(=O)(=O)N(C)CC(=O)NC1CCCC1)OCC(=O)N2	i	-0.13
Cc1ccccc1C(=O)Nc1ccc(C(=O)N2CCCC2C(=O)NCCC(C)C)cc1 (stereo unspecified)	i	-1.6
O=S(=O)(Nc1ccc(-c2ccc(N3CCCCC3)nn2)cc1)c1cc(F)ccc1F	i	-1.2
O=C1CC(c2nc3ccccc3n2CC(O)COc2ccccc2Cl)CN1c1ccc(Cl)cc1 (stereo unspecified)	i	-0.69
COc1ccc(Oc2cc3c(cc2S(=O)(=O)N(C)C)C(=O)Nc2ccccc2O3)cc1	i	-0.06
CCC(Sc1nnc(-c2ccccc2NC(C)=O)c(=O)[nH]1)C(=O)Nc1c(C)cc(C)cc1C (stereo unspecified)	i	-0.51

(list continues)
SMILES	Choline anaer gr	Choline anaer gr early
COc1cc(CNC(=O)c2ccc3cnn(Cc4ccc(Cl)cc4)c3c2)cc(OC)c1	i	1.1
O=C(C1CCN(S(=O)(=O)c2ccc3nc(-c4ccccc4)[nH]c3c2)CC1)N1CCCC1	i	-0.9
CCOc1cc(CNC(=O)CN2C(=O)CN(C(=O)Nc3ccccc3)c3ccccc32)ccc1OC	i	-1.2
COc1ccc(-n2c(C)cc(CNS(=O)(=O)c3ccc(C)cc3)c2C)cc1	i	-1.2
CS(=O)(=O)Nc1ccc(N2CCN(C(c3ccccc3)c3ccccc3)CC2)cc1C(=O)O	i	-1
Cc1cc(NCCN(C)C)n2nc(C)c(-c3ccc(F)cc3)c2n1	i	0.01
CNC(=O)c1sc(N2CCCC2)nc1N	i	-0.7
COc1ccc(-c2csc(NC(=O)c3cc4ccccc4cc3OC)n2)cc1OC	i	0.64
COc1ccc(C(=O)Nc2ccc3nc(N4CCCN(c5ncccn5)CC4)cc(C(=O)O)c3c2)cc1	i	-0.07
Cc1cccc(NC(c2cccnc2)c2ccc3cccnc3c2O)n1 (stereo unspecified)	i	0.18
COc1ccc(CNS(=O)(=O)c2cc3c4c(c2)CCN4C(=O)CC3)cc1	i	0.29
Cc1ccc(S(=O)(=O)c2ccc(C(=O)NC3CCCC3)cn2)cc1C	i	0.69
Cc1c(C(=O)N2CCN(C3CCCCC3)CC2)sc2ncnc(N3CCN(C)CC3)c12	i	-0.23
COc1ccccc1N1CCN(S(=O)(=O)c2cc(-c3nnc(C4CCC4)o3)co2)CC1	i	1.7
Cc1nn(-c2cc(N3CCCCC3)ncn2)c(C)c1CCC(=O)N1CCN(c2ccccn2)CC1	i	-0.06
Fc1ccccc1N1CCN(c2c3c(nc4ncnn24)CCC3)CC1	i	1.2
CC(=O)NCC(=O)N(c1c(C)n(C)n(-c2ccccc2)c1=O)C1(C(=O)NC2CCCC2)CCCCC1	i	-1.5
Cc1cc(C)c(NC(=O)c2ccc(S(=O)(=O)c3ccc(Br)cc3)nc2)c(C)c1	i	0.53
COc1ccc(OC)c(NC(=O)N2CCCN(c3nc4cccnc4s3)CC2)c1	i	-0.04
CCOC(=O)C1CCN(C(=O)C2CCN(c3cc(C)c4cc(NC(C)=O)ccc4n3)CC2)CC1	i	-2.6
Cc1nc(CCNC(=O)[C@H]2CCCN2S(=O)(=O)c2ccc(F)cc2)cs1	i	-0.14
Cc1nn(-c2ccc3nncn3n2)c(C)c1CCC(=O)N1CCCC1	i	0.47
Cc1ccc(-c2noc3c(N4CCc5ccccc54)nc(C)nc23)cc1	i	-0.04
COc1ccc(OC)c(NC(=O)C2CCN(c3nc4ccccc4nc3OC)CC2)c1	i	0.09
COCCn1nnc2cc(S(=O)(=O)N3CCCCC3C(=O)NCc3ccc(C)cc3)ccc21 (stereo unspecified)	i	-0.27
Cn1c(=O)oc2cc(NC(=O)c3cc4ccccc4[nH]3)ccc21	i	0.16
CC(C)c1ccc(C(=O)N2CCC(c3noc(-c4cccc(F)c4)n3)CC2)cc1	i	2.8
COc1ccc(Oc2cc3c(cc2NS(=O)(=O)c2cccc(OC)c2)n(C)c(=O)c(=O)n3C)cc1	i	-0.27
CCOc1ccc(N(Cc2nc3nc(C)cc(=O)n3[nH]2)S(=O)(=O)c2ccc(Cl)cc2)cc1	i	-0.08
O=C(O)Cc1cc2ccccc2nc1C(=O)O	i	-0.39
COc1ccc(C2CC(=O)N(c3cccc(F)c3)C(=O)C2)cc1	i	0.03
Cc1nc(Nc2ccc(NS(=O)(=O)c3ccc(F)cc3)cc2)cc(N(C)C)n1	i	-1
COc1ccc(OC)c(NC(=O)N2CCc3nc[nH]c3C2)c1	i	-1
Cc1ccc(-c2cc(C(=O)N3CCN(c4ccc(N5CCOCC5)nn4)CC3)[nH]n2)c(C)c1	i	0.38
CC1(CN2CCC(n3c(=O)[nH]c4ccccc43)CC2)OCc2ccccc2-n2cccc21 (stereo unspecified)	i	-0.49
O=C1C(=O)N(C2CCN(C(=O)c3ccccc3F)CC2)CCN1Cc1cccc(F)c1	i	-0.48
O=C(Nc1ccc2c(c1)OCCO2)N1CCN(C(=O)c2nsc3ccccc23)CC1	i	0.29
COc1ccc(NC(=O)COc2ccc(-c3cnc4ccccc4n3)cc2)cc1OC	i	1.5
C=CCSc1c(CC)cnc2c1c(=O)n(C)c(=O)n2C	i	-1.6
CCOC(=O)c1[nH]c2ccccc2c1CCC(=O)O	i	0.4
CC(C)CN(CC(C)C)C(=O)c1cc(NC(=O)c2ccc(F)cc2)cnc1N1CCNCC1	i	0.58
NC(=O)CSc1nn2c(=O)c(Cc3ccccc3)nnc2s1	i	-0.36
Cc1cc(NC(=O)Cn2c(=O)n(C(C)C)c3ccc(-c4noc(C)n4)cc32)no1	i	-0.74
CN(CCc1noc(-c2cc3cc(Cl)ccc3[nH]2)n1)C(=O)C1CCC1	i	0.75
CCOCCCNC(=O)C(NC(=O)c1cnccn1)c1ccc(C)cc1 (stereo unspecified)	i	-0.03
COc1ccc(NCc2nc3nc(C)cc(=O)n3[nH]2)c(OC)c1	i	0.52
Cc1cnc(C(=O)NC2CCN(c3nc4ccccc4s3)CC2)cn1	i	0.58
CC1CCc2c(sc3nc(CCC(=O)N4CCCC4)[nH]c(=O)c23)C1 (stereo unspecified)	i	0.59
CCN(CC)c1ncc2c(n1)CCC(C(=O)N1CCOCC1)C2 (stereo unspecified)	i	-0.26
Cn1c(SCc2nc(-c3ccc4c(c3)OCO4)no2)nc2cc3c(cc2c1=O)OCO3	i	0.2
COc1ccc(-c2nn3c(-c4ccccn4)nnc3s2)c(OC)c1	i	-0.11
Cc1nc(C(C)C)ncc1C(=O)Nc1ccc(Cl)cc1	i	-1.3
Cc1cc(C2CCCN2Cc2cn[nH]c2-c2cccc(Br)c2)no1 (stereo unspecified)	i	-0.42
O=C(NCCc1cccs1)c1cc2c(s1)CN(C1CCCC1)C2	i	0.57
CC1(C(=O)NC2CCCC2)Cn2c(cc3ccsc32)C(=O)N1Cc1ccc(Cl)cc1 (stereo unspecified)	i	0.92
Cc1cc(-c2ccc(C)c(S(=O)(=O)N3CCC(CN4CCc5ccccc5C4)CC3)c2)on1	i	-0.85
CC1=C(C(=O)OC(C)C)C(c2cccc([N+](=O)[O-])c2)C(C(=O)OC2CN(C(c3ccccc3)c3ccccc3)C2)=C(N)N1 (stereo unspecified)	i	0.33
CCOC(=O)Cn1c2ccc(C)cc2c2nc3ccccc3nc21	i	0.03
CCS(=O)(=O)c1nc2ccc(NS(=O)(=O)c3ccc4c(c3)oc(=O)n4C)cc2s1	i	-0.16
CCc1cc(-c2csc(S(=O)(=O)N(Cc3ccccc3)C(C)C)c2)on1	i	1.4
Next entries follow.
SMILES	Choline anaer gr	Choline anaer gr early
CC(C)c1ccc(S(=O)(=O)N2CCCC2c2nc(-c3ccccc3)no2)cc1 (stereo unspecified)	i	1.7
CCN1C(=O)Cc2cc(NC(C)=O)ccc21	i	-0.95
CCCCc1c(C)nc2nc(N(Cc3ccc(Cl)cc3)C(=O)C(C)C)[nH]n2c1=O	i	-0.47
Cc1ccc(N2C(=O)N(Cc3ccc(C(C)(C)C)cc3)c3ccccc3S2(=O)=O)cc1	i	-0.2
COc1ccc(N2C(=O)CC(N(C)CCc3ccc(OC)c(OC)c3)C2=O)cc1 (stereo unspecified)	i	-0.84
CC(C)CCNC(=O)C1(C)Cn2c(cc3ccccc32)C(=O)N1C1CC1 (stereo unspecified)	i	0.33
O=C(C1CCN(c2nnc(-n3cccc3)s2)CC1)N1CCN(c2ncccn2)CC1	i	-0.65
O=C1CC(c2ccccc2)c2c(-c3ccc(Cl)cc3)nn(-c3ccccc3)c2N1 (stereo unspecified)	i	-0.59
CC(=O)N1CCc2cc(Br)c(S(=O)(=O)n3cc4c(=O)n(C)c(=O)n(C)c4n3)cc21	i	0.69
CCCCCNC(=O)C1=C(c2ccccc2)c2cc(Cl)ccc2S(=O)(=O)N1C	i	-0.08
COc1ccccc1N1CCN(C(=O)C2CCN(c3ncnc4c3oc3ccccc34)CC2)CC1	i	0.18
CCOc1ccc(Oc2nc3ccccc3n3cnnc23)cc1	i	-0.33
COc1ccc(-n2nc(C(=O)NCCCN3CCC(C)CC3)c3ccccc3c2=O)cc1	i	0.25
CCOc1ccc(NC(=O)CN2C(=O)C(C)(C)c3cc(S(=O)(=O)N4CCCC4)ccc32)cc1	i	-0.76
COC(=O)c1ccc(NC(=O)Cn2cnc3c(sc4ncccc43)c2=O)cc1	i	0.1
NC1CCN(c2cccc(Cl)n2)CC1	i	0.47
O=S(=O)(c1ccc2c(c1)CCCC2)N1CCCC(c2nc(-c3ccc(Br)cc3)no2)C1 (stereo unspecified)	i	0.78
CCC(C)NC(=O)c1c(-c2cccc(Br)c2)noc1C (stereo unspecified)	i	-0.05
Cn1nc(-c2nc(-c3ccccc3)no2)c2c1CCN(S(=O)(=O)c1cccc3cccnc13)C2	i	-0.1
CCc1ccc(N(CC)C(=O)Cc2c(C(=O)O)n(CC)c3ccccc23)cc1	i	0.56
Cc1cccc(-n2c(C)c(C)c3c2ncn2nc(-c4ccc(F)cc4)nc32)c1	i	-0.96
c1ccc(CCNc2nc(-c3ccccc3)no2)cc1	i	-0.34
O=C(Nc1cc(F)c2nc(N3CCOCC3)ccc2c1)C1CCCC1	i	-0.22
Cc1cccc(NC(=O)CSc2ncnc3nc(N4CCC(C)CC4)sc23)c1C	i	0.24
O=C(Nc1ccccc1)Nc1ccc(CCc2nc3ccccc3[nH]2)cc1	i	-0.07
Cc1cc2c(cc1S(N)(=O)=O)S(=O)(=O)CCC2	i	-3.5
CC(C)CCn1nc2c(S(=O)(=O)N3CCCCC3)cccn2c1=O	i	-0.95
CCc1nnc(NC(=O)CSc2nnc3[nH]c(=O)cc(C)n23)s1	i	-0.33
CC(C)c1ccc(S(=O)(=O)Nc2cnc(N3CCNCC3)c(C(=O)N3CCCCC3C)c2)cc1 (stereo unspecified)	i	-0.01
CC1CCN(S(=O)(=O)c2ccc3c(c2)c(=O)c(C(=O)N(C)Cc2ccccc2)cn3C)CC1	i	-1.2
Cc1ccccc1C(=O)N1CCC(c2ccncc2)CC1	i	1.1

Arranged by formula weight (falling): 3 of the compounds above.
SMILES	Choline anaer gr	Choline anaer gr early
CC1CCN(S(=O)(=O)c2ccc3c(c2)c(=O)c(C(=O)N(C)Cc2ccccc2)cn3C)CC1	i	-1.2
O=C(Nc1ccccc1)Nc1ccc(CCc2nc3ccccc3[nH]2)cc1	i	-0.07
CCc1nnc(NC(=O)CSc2nnc3[nH]c(=O)cc(C)n23)s1	i	-0.33

Compound activity: PubChem, ICCB-Longwood Screening Facility, Harvard Medical School

Only part of the results is shown. The share of hits here may be higher or lower than overall.
